Screens as filed in PubChem BioAssay.
MenB inh – inhibitors of Mycobacterium tuberculosis MenB enzyme; AID 540299; MenB enzyme assay, absorbance read-out; some hits fall short of the stated cut; inhibition, %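 (about 12 µg/mL by stock and volumes)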; 100,000 tested, 0.43% active; P9WNP5;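 active = mean of two replicates above 30%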;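 also: 0% = no compound and 100% = wells with inactive enzyme; the first replicate is given; strong numbers were not always called active; inactives centre near -10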
Target sequence (P9WNP5 whole entry, looked up): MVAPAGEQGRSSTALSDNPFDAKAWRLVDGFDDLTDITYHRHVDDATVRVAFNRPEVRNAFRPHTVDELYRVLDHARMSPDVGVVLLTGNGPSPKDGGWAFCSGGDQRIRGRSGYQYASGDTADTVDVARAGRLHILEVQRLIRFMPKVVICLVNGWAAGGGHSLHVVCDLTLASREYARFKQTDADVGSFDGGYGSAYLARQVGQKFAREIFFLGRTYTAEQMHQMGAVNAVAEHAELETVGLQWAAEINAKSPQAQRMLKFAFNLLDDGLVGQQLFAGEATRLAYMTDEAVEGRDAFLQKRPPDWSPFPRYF
Mtb MbtI inh – blocks the Mycobacterium tuberculosis siderophore enzyme MbtI; 100,000 tested, 0.89% active; inhibition, %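 (about 17 µg/mL by stock and volumes)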; purified MbtI enzyme, fluorescence intensity read-out; AID 493033; P9WFX0;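 active = above 50% in both replicates, above 80% if mildly self-fluorescent; inactive = the rest, strongly fluorescent compounds included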;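 also: 0% = mean of negative and 100% = mean of positive controls; one replicate is shown; some compounds called inactive have numbers as strong as hits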
Target sequence (P9WFX0 whole entry, looked up): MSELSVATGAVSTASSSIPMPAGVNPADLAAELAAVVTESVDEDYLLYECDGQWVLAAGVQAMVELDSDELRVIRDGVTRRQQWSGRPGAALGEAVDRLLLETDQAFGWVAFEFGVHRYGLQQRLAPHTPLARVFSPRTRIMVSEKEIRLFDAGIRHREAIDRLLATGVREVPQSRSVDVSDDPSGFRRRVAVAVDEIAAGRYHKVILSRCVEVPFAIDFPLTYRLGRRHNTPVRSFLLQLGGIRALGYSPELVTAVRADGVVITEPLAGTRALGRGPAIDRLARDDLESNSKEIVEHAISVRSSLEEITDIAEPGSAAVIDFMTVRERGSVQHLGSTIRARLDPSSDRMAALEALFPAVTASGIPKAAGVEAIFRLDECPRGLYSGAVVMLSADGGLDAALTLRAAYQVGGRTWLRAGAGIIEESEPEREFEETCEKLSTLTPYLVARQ
Polio RdRp inh – inhibitors of poliovirus RNA polymerase binding and polymerization | AID 588519 | % elongation, % (compound at 16.7 µg/mL) | 150,000 tested, 0.66% active | poliovirus polymerase elongation, fluorescence polarization; active compounds read low; in the data active = % elongation below about 90%; also: some results filed as inactive read as strong as hits
Polio RdRp inh intensity – recorded beside Polio RdRp inh, whose call it bears; % elongation; measured here: total intensity read-out; formula for this scale not given here;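 total fluorescence in place of polarization; lower means less elongation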
* hit, by the source's call; i = inactive; · = not tested or not shown.

SMILES	MenB inh	Mtb MbtI inh	Polio RdRp inh	Polio RdRp inh intensity
CSc1nnc(CCNC(=O)C(c2ccccc2)C2CCCC2)n1C (stereo not given)	-70	-8	104	100
COCc1cc(=O)[nH]c(-c2ccc(Cl)cc2)n1	16	49	101	102
O=C(N/N=C/c1cccc2c1OCCO2)c1ccc(CN2CCOCC2)cc1	16	4	102	102
O=C1CSC(=S)N1Nc1ccccc1	-59	76*	105	103
C#CCn1c(=NC(=O)CC)sc2ccccc21	-4	5	104	103
O=C(NCc1ccccc1)C1CCCN(S(=O)(=O)c2ccccc2)C1 (stereo not given)	-13	-7	101	101
CC1C(=O)N2CCCc3cc(S(=O)(=O)N4CCCCC4)cc1c32 (stereo not given)	-15	4	99	105
O=C(NCC1CCCO1)C1CCN(CC2CCCCC2)CC1 (stereo not given)	-4	·	102	104
OC(COc1ccc(Br)cc1Br)C[N+]1(Cc2ccccc2)CCOCC1 (stereo not given)	·	-8	102	106
Nc1ccnc2cc(C(F)(F)F)ccc12	-17	105	·	·
C#CCSC1=N/C(=C/N(C)C)C(=O)N1	-7	6	102	104
CCc1nnc(NC(=O)c2noc3c2COc2ccc(C)cc2-3)s1	-18	8	102	108
O=C1/C(=C\c2ccc(F)cc2)N=C(c2ccccc2)N1Cc1ccc(F)cc1	-19	-2	106	108
COc1ccc(C(=O)NCC2COc3ccccc3O2)cc1 (stereo not given)	-69	-16	103	102
Nc1n[nH]c(Cc2nc(N)n[nH]2)n1	0	-1	101	102
O=C(Nc1cccc(C(F)(F)F)c1)/C(=C\c1cccnc1)NC(=O)c1cccs1	·	0	103	99
COC(=O)c1sc(S(=O)(=O)Nc2ccc3cn[nH]c3c2)c(C(=O)OC)c1C	3	22	97	101
O=C(Cc1ccccc1)Nc1ccccc1N1CCCC1	-2	-12	·	·
CCn1c2ccccc2c2cc(NC(=O)c3cc4cc5cc(OC)ccc5nc4o3)ccc21	9	63	100	104
N=C1CNc2ccccc2C(=O)O1	-8	88	100	103
NC(CO)C(=O)N/N=C/c1ccc(O)c(O)c1O (stereo not given)	-35	8	99	100
CC(C(=O)N1CCc2ccccc21)N1CCN(S(=O)(=O)/C=C/c2ccccc2)CC1 (stereo not given)	-18	-2	106	104
O=C1CSCc2ccccc21	-15	15	101	103
CCOC(=O)N1CCN(CN2C(=S)SC3=NC(=O)CCCN32)CC1	-38	38	103	102
O=C(NCCC1=CCCCC1)C1CCCN(C(=O)c2cnn(-c3ccccc3)c2-n2cccc2)C1 (stereo not given)	-29	-10	106	101
CNCc1cn2cc(Cl)ccc2n1	·	5	101	105
CC(C)NC(=S)NCc1cccnc1	-5	-5	101	105
Cc1nn(-c2ccccc2)c(C)c1CCC(=O)Nc1ccc(S(C)(=O)=O)cc1	-4	-8	110	107
CC(C)(C)c1ccc(S(=O)(=O)N2CCCC2C(N)=O)cc1 (stereo not given)	-15	74	106	104
O=C(O)/C(=C/C(=O)c1ccccc1)Nc1ccccc1	11	10	97	98

Looked up above.
In Mtb MbtI inh, `O=C1CSCc2ccccc21` reads 15
In MenB inh, `CCOC(=O)N1CCN(CN2C(=S)SC3=NC(=O)CCCN32)CC1` reads -38
In Polio RdRp inh, `CC(C)NC(=S)NCc1cccnc1` reads 101
In Polio RdRp inh intensity, `O=C(NCCC1=CCCCC1)C1CCCN(C(=O)c2cnn(-c3ccccc3)c2-n2cccc2)C1` (stereo not given) reads 101
In MenB inh, `CC(C(=O)N1CCc2ccccc21)N1CCN(S(=O)(=O)/C=C/c2ccccc2)CC1` (stereo not given) reads -18
In Mtb MbtI inh, `NC(CO)C(=O)N/N=C/c1ccc(O)c(O)c1O` (stereo not given) reads 8
In Polio RdRp inh intensity, `CNCc1cn2cc(Cl)ccc2n1` reads 105

Other results
SMILES	MenB inh	Mtb MbtI inh	Polio RdRp inh	Polio RdRp inh intensity
CCn1cc(C(=O)c2ccccc2)c2ccccc21	-25	-1	101	97
CNc1nc(C)c(C(C)(C)C)s1	·	13	103	102
Cc1ccccc1-c1nnc(SC(C)C(=O)Nc2ccc3c(c2)OCO3)n1C (stereo not given)	-5	-2	102	100
O=C(NC(=S)NCc1cccnc1)c1ccc2c(c1)OCO2	13	26	97	100
O=C(CC1Sc2ccccc2NC1=O)OCC(=O)N1CCN(S(=O)(=O)c2ccccc2)CC1 (stereo not given)	-56	-5	102	105
CC1(C)CC(CCN)(c2ccccc2)CCO1 (stereo not given)	-23	-7	103	106
CCCCc1ccc(Nc2nc3cc(Cl)ccc3o2)cc1	-49	-1	119	134
CC(C)(C)OC(=O)N1CCCCC1CN (stereo not given)	-46	-3	102	106
COc1ccc2oc(C(=O)OCC(=O)Nc3ccc(S(=O)(=O)N4CCOCC4)cc3)c(C)c2c1	-20	104	107	110
NC(=S)N/N=C/c1ccccc1O	-28	1	102	103

Record cards, as listed above. Order of screens: MenB inh | Mtb MbtI inh | Polio RdRp inh | Polio RdRp inh intensity
CC(C)(C)OC(=O)N1CCCCC1CN (stereo not given) as listed: -46 | -3 | 102 | 106
NC(=S)N/N=C/c1ccccc1O as listed: -28 | 1 | 102 | 103
CCCCc1ccc(Nc2nc3cc(Cl)ccc3o2)cc1 as listed: -49 | -1 | 119 | 134
CC1(C)CC(CCN)(c2ccccc2)CCO1 (stereo not given) as listed: -23 | -7 | 103 | 106

More entries
SMILES	MenB inh	Mtb MbtI inh	Polio RdRp inh	Polio RdRp inh intensity
Cc1cc(=O)n(CC(=O)O)c2ccccc12	21	43	99	102
CN(C)S(=O)(=O)c1ccc2c(c1)nc(CCC(=O)Nc1ccc3c(c1)OCO3)n2C	-23	26	104	99
CCOC(=O)c1[nH]c2ccccc2c1NC=O	-4	·	107	112
O=C(O)CC1CCS(=O)(=O)C1 (stereo not given)	22	-10	101	101
Cc1cc(C)c(NC(=O)CSC2=NN3CCCC(=O)N=C3S2)c(C)c1	-10	3	100	101
CC(=O)N1CC(C)Oc2ccc(S(=O)(=O)Nc3ccc(Cl)cn3)cc21 (stereo not given)	-11	-19	99	100
CC1(c2ccccc2)NC(=O)NC1=O (stereo not given)	-12	-17	103	103
O=C(c1ccccc1)C12CN3CN(CN(C3)C1)C2	-20	11	102	91
O=C(COC(=O)c1ccc2c(c1)S(=O)(=O)N=C1CCCCCN12)Nc1cccc2nsnc12	-13	33	98	100
CC(C)(C)c1cc(-c2csc(-c3ccno3)n2)cc(C(C)(C)C)c1O	-22	3	106	107
CN1CCN(c2ccccc2/C=N/NC(=O)c2cccnc2)CC1	-8	-1	103	107
CCOC(=O)C1CCCN(C(=O)CCCN2C(=O)CSc3ncccc32)C1 (stereo not given)	-14	-4	104	104
Cc1cc(C)n(-c2ccc(C(=O)OCc3nc4ccccc4[nH]3)cc2)n1	-5	-22	97	104
Cc1ccc(S(=O)(=O)Nc2cc(C(=O)NCC3CCCO3)ccc2N2CCCCC2)cc1 (stereo not given)	-8	-18	101	101
CCOc1cc(CN2CCN(c3cccc(C(F)(F)F)c3)CC2)ccc1OC	-27	-17	100	101
CCN1C(=O)/C(=C/c2c(-c3ccccc3)[nH][nH]c2=O)C(=O)c2ccccc21	-12	·	105	110
O=C(NCc1ccco1)c1ccccc1N(Cc1ccccc1)S(=O)(=O)c1ccccc1	2	·	106	113
COc1ccc(NC(=O)CCN2CCN(S(=O)(=O)c3cc(Cl)ccc3OC)CC2)cc1	2	2	99	104
O=C(O)CCN1Cc2ccccc2C1=O	7	·	96	100
O=S(=O)(c1ccc(F)cc1)N(Cc1ccc2c(c1)OCO2)S(=O)(=O)c1ccc(F)c(F)c1	-13	-6	100	106
O=C(c1ccccc1C(F)(F)F)N1CCc2ccccc21	0	-14	106	109
Cc1ccc(C(=O)O)cc1NC(=O)c1ccco1	·	-28	103	107
O=C(O)c1ccccc1OCCOc1ccccc1C(=O)O	-7	-8	100	100
Cc1noc(C)c1Cn1nnc(-c2cccc(C(F)(F)F)c2)n1	-5	-1	105	104
CC(=O)SC(C)CC(=O)Nc1ccccc1 (stereo not given)	-40	5	99	102
Cc1csc2ncc(C(=O)N(C)c3ccccc3)c(=O)n12	-10	-5	100	98
O=C(OCC(=O)N1CCc2ccccc2C1)c1cccnc1Cl	·	-6	101	103
CCC1=C(C)/C(=C\c2[nH]c(C)c(CC)c2C)N=C1C	-17	·	43	243
O=C(CCc1ccccc1)Nc1nn2c(-c3ccccc3)nnc2s1	-20	-2	105	98
OC(c1ccc(-c2ccccc2)[nH]1)C(F)(F)F (stereo not given)	15	·	109	109
CCc1ccc2[nH]c(C(=O)NCCc3ccccc3)cc2c1	-5	-143	102	107
O=C1CC(c2ccco2)Sc2nc(-c3ccc(F)cc3)nn21 (stereo not given)	-8	21	101	103
CCCN(CCC)C(=O)Nc1cn(CC(C)C)c(=O)c2ccccc12	-24	120	97	95
N#Cc1nc2c(C#N)c3ccc4ccccc4n3c2nc1C#N	-16	3	50	257
O=C(Nc1ccccc1C(=O)NCCCN1CCCC1)C1=CSCCO1	-22	-13	102	103
O=C(Nc1ccccc1)Nc1csc(-c2ccc(C(F)(F)F)cc2)n1	2	-485	102	105
O=C(CSc1nc2ccccc2c(=O)[nH]1)c1ccc(-c2ccccc2)cc1	0	1	104	106
N#CC1=C(N)SC2CSCC2=C1 (stereo not given)	1	65	100	114
CC(C)C1=NC(C(F)(F)F)(C(F)(F)F)NN1c1ccccc1	-9	24	100	102
CCCc1nc2ccccc2n1CC(=O)N(CC)C1CCCCC1	-15	-12	102	98
N#CCC1NCCc2ccccc21 (stereo not given)	-33	2	106	96
O=c1c2cnn(-c3ccccc3)c2ncn1/N=C/c1ccncc1	-22	3	100	111
COc1ccc(C2=NN(CC(=O)NCC3CCCO3)C(=O)CC2)cc1 (stereo not given)	4	3	99	103
O=c1cccc2n1CC1CC2CN(C(=S)Nc2ccccc2)C1 (stereo not given)	-19	0	101	103
COc1cccc(NC(=O)COC(=O)c2cccc(S(=O)(=O)N(C)C)c2)c1	-28	-16	104	109
O=C(CN(Cc1ccccc1)C(=O)Cn1nnc(-c2ccc(F)cc2)n1)NC1CCCC1	-39	-11	103	103
CCOC(=O)c1c(CNc2cccc(C(N)=O)c2)n(C)c2cc(Br)c(OC(C)=O)cc12	-8	·	108	104
CSC1=C(C#N)C(c2ccc(C(C)C)cc2)CC(=O)N1 (stereo not given)	-6	·	105	116
Cn1c(SCCCn2c(=O)[nH]c3ccccc32)nnc1C(F)(F)F	-12	-11	101	105
CCc1n[nH]c(=S)n1/N=C/c1ccsc1	-36	26	104	104

(list continues)
SMILES	MenB inh	Mtb MbtI inh	Polio RdRp inh	Polio RdRp inh intensity
CCOC(=O)c1ccc(S(=O)(=O)N2CCN(Cn3cnc4ccccc43)CC2)cc1	-10	6	104	107
CN(C)C(=S)Nc1ccccc1N1CCOCC1	-11	95*	98	100
CN(C)c1ccc(CNc2nc3ccccc3n2C)cc1	·	-5	100	99
ON=C1CCC2CC1CC/C2=N\O	-18	-2	105	109
CCOC(=O)c1ccc(NC(=O)c2ccc(=O)[nH]c2)cc1	-9	i	108	111
O=C(OCc1ncc(-c2ccccc2)o1)C12CC3CC(CC(C3)C1)C2	-26	2	103	118
O=C1CN(C(=O)/C=C/c2cccs2)c2ccccc2N1	-1	4	105	102
CCCC1c2cccn2CCN1C(=O)NC1CCCCC1 (stereo not given)	6	-11	100	103
CCOC(=O)/C=c1\[nH]c(=O)/c(=C\c2ccc(C)s2)s1	-48	1	163	175
S=c1nc2[nH]c(=S)[nH]c(=S)c2c(-c2ccco2)[nH]1	-86	·	46	256
Clc1ccc(NC2CCCCC2)nn1	-13	7	104	103
COC(=O)C(O)(CC(=O)Nc1ccc(C)c(F)c1)C(F)(F)F (stereo not given)	8	-7	98	105
O=C(NC1CCCCC1)C(=S)N1CCCC1	-12	2	101	100
Cc1ccc(C2CC(=O)C(C=NCCN3CCN(CC(=O)Nc4cc(C)cc(C)c4)CC3)=C(O)C2)cc1 (stereo not given)	-18	5	101	102
Cc1[nH]c(=O)[nH]c(=O)c1C1N2CC3(C)CN1CC(C)(C2)C3=O (stereo not given)	-1	5	101	102
O=C(c1ccc(COc2ccccc2Br)cc1)N1CCc2ccccc2C1	-18	2	102	109
CC(C)(C)OC(=O)NC1CCN(S(=O)(=O)c2cccc(S(=O)(=O)N3CCOCC3)c2)CC1	6	-19	105	102
Cc1oc2ncn(CC(C)C)c(=O)c2c1NC(=O)NC1CCCCC1	-2	-4	101	103
CN(C)c1ccc(CNC23CN4CN(CN(C4)C2)C3)cc1	1	-15	102	102
COc1ccc(CNCc2ccc(F)cc2)cc1	-9	10	100	99
Cc1cccc(OC(C)C(=O)NN)c1C (stereo not given)	-20	-18	107	107
O=C(CNS(=O)(=O)c1ccc(Cl)cc1)NC1CCCC1	8	2	101	106
Cc1c(C(=O)NN)nn(-c2ccc(C(C)(C)C)cc2)c(=O)c1C#N	-31	-3	102	99
Cc1nn(-c2ccccc2)c(Cl)c1CN1CCN(Cc2ccc3c(c2)OCO3)CC1	-3	-1	99	105
CCN(CC)P(=S)(c1ccc(/C=N/NC(N)=O)o1)N(CC)CC	13	17	109	103
O=C(NCC1CCCCC1)c1ccc(=O)n(Cc2ccccc2)n1	-1	7	101	96
CC(C)(C)C(=O)OCC(=O)Nc1ccccc1	·	-11	100	98
Fc1ccc(Oc2ncccn2)c(Cl)c1	-8	11	104	106
CSc1nc2ccc(S(=O)(=O)N3CCCCC3)cc2s1	41	-1	100	103

Compounds as they come; about 1.9% have a hit in one of these screens.
